Bioassay records from PubChem BioAssay.
KAT2A inh: qHTS Assay for Inhibitors of GCN5L2; Histone acetyltransferase KAT2A (Homo sapiens), Q92830; GCN5L2 HAT assay, ThioGlo1 CoA-SH fluorescence; Potency, µM (doses to about 58.9 µM), for inactives: top-dose activity change, negative = inhibition, most hits filed as inhibitors; 390,000 compounds, 0.21% hits
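Compounds, pin-transferred from DMSO stocks, meet 20nM GCN5L2 for 15 min before the reaction begins with H3(1-25) peptide (75uM) and acetyl-CoA (70uM). Thiol-reactive ThioGlo1 reports CoA release over 20 min at room temperature.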
FEN1 inh: qHTS Assay for the Inhibitors of Human Flap endonuclease 1 (FEN1). Recombinant FEN1 flap cleavage, fluorescence, 15 min. Potency, µM (highest dose often 114 µM), for inactives: at the top dose activity change, negative = inhibition, actives largely listed as inhibitors. 390,000 compounds, 0.35% hits; note: nearly all actives have a fitted effect of over 65% in size
Target sequence (P39748 whole entry, looked up): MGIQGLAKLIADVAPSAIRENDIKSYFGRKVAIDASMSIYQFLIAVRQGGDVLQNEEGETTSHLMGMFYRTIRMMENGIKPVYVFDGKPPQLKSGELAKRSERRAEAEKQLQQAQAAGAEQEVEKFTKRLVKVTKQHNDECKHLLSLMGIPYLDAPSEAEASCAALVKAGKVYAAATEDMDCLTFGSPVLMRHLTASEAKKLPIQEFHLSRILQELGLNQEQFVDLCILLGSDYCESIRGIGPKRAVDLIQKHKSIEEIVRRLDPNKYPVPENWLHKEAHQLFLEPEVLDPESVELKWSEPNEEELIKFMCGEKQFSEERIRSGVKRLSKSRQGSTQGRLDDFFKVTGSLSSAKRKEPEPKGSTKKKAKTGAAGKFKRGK
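Enzyme 10 nM, 15 min RT preincubation with compound; start with substrate 50 nM final; reads at 0 and 15 min; qHTS titration, four-parameter Hill fit.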
* hit, by the source's call; ? = inconclusive; . = no result given; & = joins results of further samples. Calls come from the whole dose curve; as a rule, active = well fitted curve in the direction sought with a large enough effect; inconclusive = small, poorly fitted or top-dose-only effect, or another doubt; inactive = no such curve, though single readings can be large; an effect the other way counts as inactive or inconclusive. % is set by controls: 0 for no effect and ±100 for the full control effect; potency is the fitted concentration of half-maximal effect. A portion of the library, and most or all hits are left out here.

SMILES	KAT2A inh	FEN1 inh
Cn1c(C23CC4CC(CC(C4)C2)C3)n[nH]c1=S	-1%	1%
CCOc1ccc(CCNS(=O)(=O)c2cc3c(cc2C)NC(=O)CO3)cc1OCC	4%	-4%
CC(C)CN1CCCC2(CCN(C(=O)c3ccco3)CC2)C1	9%	.
COc1ccccc1N1CCN(S(=O)(=O)c2ccc3c(c2)n(C)c(=O)n3C)CC1	2%	5%
Cn1c(=O)[nH]c(=O)c2c1nc(N1CCCCCC1)n2CC(N)=O	-1%	-1%
COC(=O)c1ccccc1NC(=O)N1CCN(C(=O)c2ccco2)CC1	-1%	6%
CC(NCc1ccc(S(N)(=O)=O)cc1)C(=O)Nc1cccc(Cl)c1 (configuration not stated)	-2%	-6%
CCc1nnc(NC(=O)CSc2nnc(CNc3cccc(Cl)c3)n2CC)s1	2%	4%
CC1CCCN(C(=O)C2CCN(S(=O)(=O)c3ccc4c(c3)CC(C)N4C(=O)C3CC3)CC2)C1 (configuration not stated)	-2%	-1%
O=C(N/N=C/c1cccc(Oc2ccccc2)c1)c1ccncc1	-10%	1%
O=C(COC(=O)c1cc2ccccc2oc1=O)Nc1cccc(Br)c1	1%	-4%
COC(=O)C1CCN(C(=O)CCC2CCCCC2)CC1	1%	-6%
CCc1ccc(NC(=O)C2CCC(CNC(=O)[C@@H]3Cc4ccccc4CN3)CC2)cc1 (some centres not stated)	-6%	0%
CC1CCCCN1S(=O)(=O)c1ccc(-n2cnnn2)cc1 (configuration not stated)	2%	19%
Cc1ccc(S(=O)(=O)N/N=C/c2cccc(OC3CSC3)c2)cc1	-4%	-10%
NS(=O)(=O)c1ccc(CCNC(=O)CN2CCC(Cc3ccccc3)CC2)cc1	-5%	-17%
CCOC(=O)C1=C(C)Nc2ncnn2C1c1cccs1 (configuration not stated)	-5%	-5%
Cc1ccc(/C=N/Nc2ccccn2)s1	-8%	-11%
CC1CCCCN1C(=O)Cc1ccc(Cl)cc1 (configuration not stated)	-3%	-10%
COc1ccc(/C(N)=N/OC(=O)Cc2ccc(OC)c(OC)c2)cc1	-4%	-15%

Grouped by structure: those above with a Cl atom
SMILES	KAT2A inh	FEN1 inh
CC(NCc1ccc(S(N)(=O)=O)cc1)C(=O)Nc1cccc(Cl)c1 (configuration not stated)	-2%	-6%
CCc1nnc(NC(=O)CSc2nnc(CNc3cccc(Cl)c3)n2CC)s1	2%	4%
CC1CCCCN1C(=O)Cc1ccc(Cl)cc1 (configuration not stated)	-3%	-10%

Back to the main list, starting 4 compounds before the break.
SMILES	KAT2A inh	FEN1 inh
CCOC(=O)C1=C(C)Nc2ncnn2C1c1cccs1 (configuration not stated)	-5%	-5%
Cc1ccc(/C=N/Nc2ccccn2)s1	-8%	-11%
CC1CCCCN1C(=O)Cc1ccc(Cl)cc1 (configuration not stated)	-3%	-10%
COc1ccc(/C(N)=N/OC(=O)Cc2ccc(OC)c(OC)c2)cc1	-4%	-15%
CC(C)(C)Cc1nnc(NS(=O)(=O)c2ccc([N+](=O)[O-])cc2)s1	-3%	7%
Cc1nc2c(C#N)c[nH]n2c(=O)c1CCO	-21%	14%
COC(=O)C1=C(C)Nc2nc(-c3ccccc3)nn2C1c1ccc(C)o1 (configuration not stated)	-2%	-28%
CCC(C)(C)n1nnnc1C(c1ccc2ncccc2c1)N1CCCC(C)C1 (configuration not stated)	-4%	1%
O=C(NCCCN1CCOCC1)c1cc(S(=O)(=O)N2CCN(c3ccccc3)CC2)ccc1Cl	-12%	-12%
O=C(CN1CCCC(O)C1)N1c2ccccc2Sc2ccc(C(F)(F)F)cc21 (configuration not stated)	-23%	4%
CC12CCC(=O)N1C(C(=O)NNC(=O)COc1ccc(Br)cc1)CS2 (configuration not stated)	-2%	-2%
COc1cccc(-c2nnc(SCC(=O)N3CCOCC3)o2)c1	-12%	-2%
O=C(CCCCCn1c(=S)[nH]c2ccc(N3CCOCC3)cc2c1=O)NCc1ccc(Cl)cc1	0%	8%
O=C(CCl)NCc1cc(-c2ccc(Cl)cc2)no1	-2%	1%
COc1ccc2oc3cc(C)[n+]([O-])c(-c4ccc(C)cc4)c3c2c1	-1%	-6%
O=C(O)CSc1nnc(COc2cccc3ccccc23)o1	0%	3%
Cc1ccc(NC(NC(=O)c2ccccn2)C(Cl)(Cl)Cl)cc1 (configuration not stated)	-9%	-10%
Cn1cc([N+](=O)[O-])c(C(=O)Nc2cnn(Cc3ccc(F)cc3)c2)n1	1%	2%
COc1ccc(/C=C/C(=O)c2ccc3c(c2)OCCO3)cc1[N+](=O)[O-]	-25%	-3%
CN1CCN(/C=N/C2=C(C#N)C(c3ccccc3)C3=C(CC(C)(C)CC3=O)O2)CC1 (configuration not stated)	-3%	-2%
COc1ccc2oc(C(=O)OCc3nnc(-c4ccccc4)o3)c(C)c2c1	-21%	2%
CCNC(=O)O/N=C1\CCCCC1c1ccc([N+](=O)[O-])cc1[N+](=O)[O-] (configuration not stated)	-3%	10%
CCN(C(=O)COC(=O)c1cc([N+](=O)[O-])ccc1N1CCCCC1)C1CCS(=O)(=O)C1 (configuration not stated)	0%	4%
CN(C)C(=S)SCC(=O)NC(=O)NC(C)(C)C	3%	-4%
CC(C)CN(C(=O)COC(=O)c1ccc2ccccc2c1)c1c(N)n(Cc2ccccc2)c(=O)[nH]c1=O	-5%	2%
O=C(NCCc1ccc(Cl)cc1)c1ccc2ccccc2n1	-6%	-9%
CCCCOc1ccc(C(=O)NCC(=O)N2CCN(C(=O)c3ccco3)CC2)cc1	-10%	8%
COc1ccc(OC)c(CCNC(=O)CC2Oc3ccccc3NC2=O)c1 (configuration not stated)	3%	-2%
CCOC(=O)Cc1csc(SCc2nc3ccccc3c(=O)[nH]2)n1	1%	12%
COCCn1nnnc1C(c1ccccc1)N1CCN(C(=O)c2ccco2)CC1 (configuration not stated)	3%	0%
Cc1ccc(NC(=O)CN(C)c2ccc(S(=O)(=O)N3CCN(C)CC3)cn2)cc1	0%	-2%
COc1cc(SC)ccc1C(=O)N1CCCCCC1	-2%	0%
Cc1ccc(OCC(=O)N2CCN(S(=O)(=O)c3ccccc3)CC2)c([N+](=O)[O-])n1	-3%	0%
CC(C)c1nc2ccccc2n1CC(O)COC1CCCCC1 (configuration not stated)	4%	4%
CCc1ccc(NC(=S)Nc2ccc(S(=O)(=O)Nc3ncccn3)cc2)cc1	-5%	16%
Cc1ccc2nc(SCC(=O)NC3CCCCC3)nc(=O)n2c1	-7%	2%
CCOC(=O)N1CCN(C(=O)C2CCCN(Cc3nc(-c4ccc(Cl)cc4)oc3C)C2)CC1 (configuration not stated)	1%	3%
CCOc1ccc(OCCOC(=O)C2CCN(S(=O)(=O)c3ccc(C)c(C)c3)CC2)cc1	-11%	-8%
COc1ccc(N2CCN(CCNC(=O)c3ccc4nc5ccccc5c(=O)n4c3)CC2)cc1	-2%	-6%
CCOC(=O)c1ccccc1NC(=O)Cn1c(-c2nonc2N)nc2ccccc21	1%	-8%
Fc1ccccc1-c1nc(NC2CCCC2)c2ccccc2n1	22%	2%
CCOC(=O)c1cnc2ccc(C(=O)OC)cc2c1NCCN1CCOCC1	1%	0%
CSCCC(NC(N)=O)C(=O)N(C)CC(=O)Nc1cc(C)ccc1C (configuration not stated)	-3%	8%
Nn1c(SCC(=O)Nc2ccccc2)nnc1C1CCCCC1	-2%	-9%
CC(=O)N1CCc2cc(S(=O)(=O)NC(Cc3ccccc3)C(=O)O)ccc21 (configuration not stated)	-10%	7%
O=C(COC(=O)C1CCN(/C=C/C(=O)C(F)(F)F)CC1)Nc1ccccc1	-1%	-2%
O=C(CCn1nc(-c2ccc(Cl)cc2)ccc1=O)N1CCN(c2ccccc2)CC1	0%	11%
O=C(CSc1nc(=O)n2ccccc2n1)NCc1ccc2c(c1)OCO2	-3%	14%
CN(C)c1ccc(/C=C/c2nc3ccccc3c(=O)n2-c2ccc(C(=O)O)cc2)cc1	?	-4%
Cc1ccc(NC(=O)CCC(=O)NNC(=O)c2cccc([N+](=O)[O-])c2)cc1C	1%	2%
COc1ccc(-n2cnc3cc(C(=O)NC4CCCC4)ccc32)cc1	-6%&1%	-3%&-7%
CCn1cc(CNCc2c(C(=O)N3CCCCC3)nc3c(C)cccn23)cn1	-5%	0%
CCCC(=O)N1CCCC(C(=O)c2ccc(OC)c(OC)c2)C1 (configuration not stated)	0%	1%
Cc1ccc(S(=O)(=O)N2CCCCC2)c2nsnc12	-3%	1%
Cn1c(N2CCCC2)nc2c1c(=O)[nH]c(=O)n2C	-5%	19%
O=C(Nc1c2c(nn1-c1ccc([N+](=O)[O-])cc1)CS(=O)(=O)C2)c1ccco1	-8%	-3%
O=C1CN(C(=O)c2ccccc2)C(c2ccccc2)c2cc(F)ccc2N1 (configuration not stated)	-2%	3%
C[C@H](NC(=O)NC1CCCc2ccccc21)C(=O)O (some centres not stated)	-3%	0%
CC(C)n1c(N2CCN(C(=O)Nc3ccc(Cl)cc3)CC2)nc2ccccc21	-3%	21%
CN(C(=O)Cn1cc(C(F)(F)F)ccc1=O)c1c(N)n(Cc2ccccc2)c(=O)[nH]c1=O	-22%	4%
CS(=O)(=O)N1CCN(c2ccccc2NC(=S)NC(=O)c2ccccc2[N+](=O)[O-])CC1	-13%	-13%
Clc1ccc(CSc2nnc(-c3ccncc3)s2)cc1	3%	11%
CCC(OC(=O)c1cccs1)C(=O)NCc1ccco1 (configuration not stated)	2%	6%
CCOC(=O)c1cnc2cc(Cl)c(OC)cc2c1NCC1CCCO1 (configuration not stated)	-14%	-13%

Whole records from above. Order of values: KAT2A inh, FEN1 inh
CC(C)n1c(N2CCN(C(=O)Nc3ccc(Cl)cc3)CC2)nc2ccccc21 is listed with -3%, 21%
Cc1ccc(S(=O)(=O)N2CCCCC2)c2nsnc12 is listed with -3%, 1%
COc1cccc(-c2nnc(SCC(=O)N3CCOCC3)o2)c1 is listed with -12%, -2%
O=C(O)CSc1nnc(COc2cccc3ccccc23)o1 is listed with 0%, 3%
CCOC(=O)c1cnc2ccc(C(=O)OC)cc2c1NCCN1CCOCC1 is listed with 1%, 0%

Further results:
SMILES	KAT2A inh	FEN1 inh
CC(=O)c1ccc(NC(=O)Nc2ccc3c(c2)nc(C)n3C)cc1	-2%	-10%
COc1ccc(NC(=O)c2cccc(OS(=O)(=O)N(C)C)c2)cc1	-19%	-2%
CCOCCCn1c(C)nc2c(c1=O)c1nc3ccccc3nc1n2CCC1=CCCCC1	-12%	?
O=c1ccc(C(F)(F)F)cn1Cc1cc(=O)n2cc(Br)ccc2n1	?	-11%
CCNC(=O)CC1SC(=Nc2cccc3ccccc23)N(C)C1=O (configuration not stated)	1%	-2%
CCOC(=O)CN1C(=O)N(CC(=O)OCC)C(c2ccccc2)(c2ccccc2)C1=O	0%	0%
O=C(NCCCn1ccnc1)c1nc(Cn2cc([N+](=O)[O-])cn2)no1	-2%	6%
CN1C(=O)/C(=C\c2ccc(-c3ccccc3)o2)SC1=S	0%	-7%
Brc1ccccc1C1=Nn2c(nnc2-c2ccccc2)SC1	-5%	1%
O=c1ccnc(Nc2ccc3c(c2)OCCO3)[nH]1	0%	1%
Cc1ccc(CN2CCN(c3ncccn3)CC2)c(C)c1	-10%	-4%
Cc1ccc(C2/C(=C(/O)c3cnn(-c4ccccc4)c3C)C(=O)C(=O)N2CCCN2CCOCC2)o1 (configuration not stated)	2%	.
O=C(NCc1ccco1)c1ccc(COc2cc(Cl)ccc2Cl)cc1	27%	-20%
CC1(C)C(C=C(Cl)Cl)C1C(=O)N1CCN(c2ccccc2)CC1 (configuration not stated)	1%	2%
CC(c1ccco1)N(C(=O)c1ccc(S(=O)(=O)N2CCCCC2)cc1)c1ccccn1 (configuration not stated)	-1%	2%
CN1CCN(c2ccccc2NC(=O)c2cccc(OCc3ccccc3)c2)CC1	-1%	-16%
Cc1nc(-c2ccc(S(=O)(=O)Nc3ccccc3C)cc2)co1	-10%	-9%
COCCc1nnc(NC(=O)C(C)C)s1	-2%	8%
Cc1c(C(=S)Nc2ccccc2)cnn1-c1ccc([N+](=O)[O-])cc1	-9%	-1%
COc1ncc2nc(-c3cc(F)cc(F)c3)c(=O)n(C3CC3)c2n1	-12%	.
Cc1nc2sc(C(c3ccco3)N3CCN(c4ccccc4)CC3)c(O)n2n1 (configuration not stated)	-13%	2%
CCOc1ccc(S(=O)(=O)NCCCl)cc1	-5%	-13%
